Bead autofluor: counter-screen for toxin protease inhibitors: compound fluorescence. fluorescence intensity (concentration not given with the values). 360,000 tested, 3.1% active. compound autofluorescence counterscreen, microsphere flow cytometry; stronger effect = higher value;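 active = at least 3 SD above the mean of all compounds, about 16000 in these data; inconclusive = too few beads counted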;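 also: 100 nL of 1 mM stock went into each well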
Mtb hypoxia rep: PubChem AID 1159583. fluorescence inhibition, % (no concentration beside the values). M. tuberculosis hypoxia-regulated fluorescent reporter, fluorescence. 300,000 tested, 0.1% active;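 active = 35 to 45% if threefold the growth effect, above 45% if 1.5-fold the growth effect; inactive = the rest, general growth blockers included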;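 also: wells of about 50 µL received 100 nL stock; 0% = vehicle wells and 100% = reference inhibitor wells; whole bacteria with a GFP reporter of the hypoxia response; strong numbers were not always called active; many hits fall short of the cut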
Sa RN4220 lethal: growth inhibition of S. aureus RN4220, primary screen, OD600. 16 h. inhibition, % (test concentration not listed). 330,000 tested, 0.33% active;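 active = z-score of -3 or lower and OD600 up to 0.18 on both plates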;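 also: plate controls were untreated cells for no effect and reference antibiotic for full effect; stock transfer was 100 nL into about 80 µL; one replicate is shown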
BJeLR lethal: MLPCN primary cell-based screen for lethality selective to Ras in HRASV12 cells | inhibition, % (no concentration beside the values) | BJeLR (HRASV12) viability, CellTiter-Glo ATP luminescence, 48 h; reference of the scale not given here | 300,000 tested, 0.17% active | AID 1554, 2009;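 active = replicate mean above 50%; inconclusive = above 50% but judged a plate artefact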;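 also: 50 nL library stock added to about 25 µL; numbers are from one replicate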
PrP UTR inh: inhibition of PrP 5' UTR reporter expression | cell-based PrP 5' UTR mRNA reporter, plate reader | inhibition, % (no concentration beside the values) | 340,000 tested, 0.35% active;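 active = every replicate at 50% or more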;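 also: 0 = median of the neutral control wells; tested in H4 reporter cells; numbers are from one replicate; inactives centre near -14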
ugtP null kill: growth inhibition of ugtP-null S. aureus, primary screen, RN4220 ugtP deletion, OD600; 16 h; some inactives read as strong as hits; growth inhibition, % (concentration not given with the values); 330,000 tested, 0.54% active;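 active = z-score under -3 and OD600 up to 0.15 on both plates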;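 also: plate controls were untreated wells for no effect and antibiotic for full effect; wells of about 80 µL received 100 nL stock; the first replicate is given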
Mtb hypoxia rep growth: recorded beside Mtb hypoxia rep, whose call it bears; growth inhibition, %; measured here: M. tuberculosis growth (absorbance);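 0% = vehicle and 100% = reference antibiotic; read after six days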
Starred values were filed as active, the others as inactive; ? = inconclusive; . = no result given. No enrichment for hits; overall some 4% were active at least once.

Structure	Mtb hypoxia rep	ugtP null kill	BJeLR lethal	Sa RN4220 lethal	Bead autofluor	Mtb hypoxia rep growth	PrP UTR inh
NC(=O)CC(NC(=O)c1ccccc1)c1ccc(N2CCCCCC2)c([N+](=O)[O-])c1 (stereo not drawn)	-2	-8	1	0.6	4137	-4	-26
Cc1sc2ncn(N=Cc3ccco3)c(=O)c2c1C	14	1	.	5.1	.	5	.
O=C(Cn1c(NCCCO)nc2ccccc21)c1cccc(Br)c1	.	-7	-5	-0.1	2937	.	-8
COc1ccccc1C(c1nnnn1CCc1ccccc1)N1CCN(c2ccccc2)CC1 (stereo not drawn)	.	2	-4	0.7	3961	.	-22
O=C(NC1CC1)C1CCN(C2CCN(C(=O)CCOc3ccccc3)CC2)CC1	13	4	5	3.3	2106	5	-23
CCOC(=O)C1(Cc2cccc(Cl)c2)CCCN(C(=O)c2cc(C(C)C)nn2C)C1 (stereo not drawn)	5	10	0	9.2	4549	-2	3
O=C(Nc1nnc(-c2cccnc2)s1)c1cccs1	-1	4	-1	7.1	5065	-7	-6
Cn1c(CSCCOc2ccccc2)n[nH]c1=S	0	0	3	-0.4	4363	12	-22
CC(C)N1CCC2(CC1)N=C(c1ccc3c(c1)OCO3)CC(c1cc(Cl)ccc1O)N2 (stereo not drawn)	.	18	1	30	2647	.	-47
CCOc1ccc(NC(=S)N2CCC(NC(=O)C3CCCCC3)CC2)cc1	14	0	3	-0.3	2902	0	-23
CCCCN(C(=O)CCC(=O)Nc1cc(C)on1)C(C(=O)NC(C)(C)CC)c1cccc(OC)c1OC (stereo not drawn)	7	0	3	1.6	3396	2	-17
COC(=O)C1=C(c2c(C)noc2C)C[C@@H]2CC[C@H]1N2C(=O)NC1Cc2ccccc2C1	5	-2	.	-9.2	2939	17	-21
O=C1c2ccccc2C(=O)N1SC1CCCCC1	3	44	-3	9.0	3073	8	-7
COc1cc(NC(=O)C2CC(=O)N(Cc3ccco3)C2)c(OC)cc1Cl (stereo not drawn)	-3	0	.	2.2	3678	2	-11
CCSc1ccc(-c2nn(-c3ccccc3)cc2/C=C(/C#N)C(=O)NCCCOC)cc1	4	1	.	2.5	2312	-3	-25
CCOC(=O)N1CCC(NC(=O)CSc2cc(=O)n(CC)c3ccccc23)CC1	-9	-2	6	-1.3	21138*	17	-6
CCCCNC(=O)c1onc(CSc2cccc(C)c2)c1C(=O)O	9	-8	4	13	3032	13	-10
O=C(c1ccco1)N1CCN(C(=O)c2cnn3c2NC(c2cccs2)CC3C(F)(F)F)CC1 (stereo not drawn)	5	5	1	0.8	8014	5	-24
O=C(OCc1ccc(Br)cc1F)c1cc2ccccc2oc1=O	3	2	-5	2.0	3365	-5	-9
O=C(c1cccc(Cl)c1)N1CCC2(CC1)NCCc1[nH]cnc12	9	6	-3	5.2	4274	-5	-33
Cc1nnc(SCC(=O)Nc2ncc3c(n2)CC(c2ccccc2)CC3=O)s1 (stereo not drawn)	-4	-4	3	-2.1	15646	-4	-19
O=C(c1ccc(Cl)cc1Cl)N1CCN(c2ccc(N3CCOCC3)nn2)CC1	4	6	6	2.5	?	5	-21
C=CCn1c2ccccc2c2nnc(SCc3[nH]c(=O)[nH]c3C(=O)CCCCC(=O)OCC)nc21	10	8	-20	1.2	7452	0	-13
CC(C)(C)c1ccc(OCCCC(=O)Nc2cccc(S(=O)(=O)N3CCOCC3)c2)cc1	-1	-7	.	-1.0	.	-8	-18
CCN(CC)CCn1c(=N)n(CC(O)c2ccc(OC)c(OC)c2)c2ccccc21 (stereo not drawn)	-12	1	-1	-4.0	2158	6	-7

Record cards (already shown):
Profile of `O=C(c1ccc(Cl)cc1Cl)N1CCN(c2ccc(N3CCOCC3)nn2)CC1` → Mtb hypoxia rep: 4; ugtP null kill: 6; BJeLR lethal: 6; Sa RN4220 lethal: 2.5; Bead autofluor: ?; Mtb hypoxia rep growth: 5; PrP UTR inh: -21
Profile of `CCOC(=O)C1(Cc2cccc(Cl)c2)CCCN(C(=O)c2cc(C(C)C)nn2C)C1` (stereo not drawn) → Mtb hypoxia rep: 5; ugtP null kill: 10; BJeLR lethal: 0; Sa RN4220 lethal: 9.2; Bead autofluor: 4549; Mtb hypoxia rep growth: -2; PrP UTR inh: 3

Next structures:
Structure	Mtb hypoxia rep	ugtP null kill	BJeLR lethal	Sa RN4220 lethal	Bead autofluor	Mtb hypoxia rep growth	PrP UTR inh
CC(=O)c1ccc(NC(=O)C(C)OC(=O)C2CC(=O)N(c3ccc4c(c3)OCCO4)C2)cc1 (stereo not drawn)	3	2	-3	0.2	7217	0	-4
O=C(CSCc1ccc(Cl)cc1)N/N=C/c1ccccc1	.	.	7	.	4258	.	-23
COC(=O)c1ccc(CNC(=O)COC(=O)CCC2CCCC2)cc1	5	14	2	0.4	1921	0	-27
COc1cccc(C(=O)CSc2nnc(CNS(C)(=O)=O)n2-c2ccc(C)cc2)c1	.	-12	-2	-0.7	2869	.	-6
N#CCCN(C(=O)COC(=O)CCC(=O)c1cccs1)c1ccccc1	8	2	.	1.7	5601	9	.
O=C(NNC(=S)NC(=O)c1cn(-c2ccccc2)nc1-c1ccccc1)c1ccncc1	2	10	8	36	4186	3	-12
CCC(=O)N1CCCc2cc(S(=O)(=O)CCC(=O)Nc3ccccc3C)ccc21	2	1	0	2.4	5646	-2	-13
CCOC(=O)c1ccc(S(=O)(=O)N2CCC(C(=O)Nc3nnc(C)o3)CC2)cc1	-5	11	.	3.6	.	-5	-27
NC(=O)c1c(NC(=O)c2ccccc2Cl)sc2c1CCC2	3	-21	28	-1.5	3776	1	-40
Nc1nonc1-n1nnc(C(=O)N/N=C/c2ccccn2)c1CNc1ccccc1	.	.	-7	.	6336	.	-13
CC(C)CCN(C(=O)C1=COCCO1)c1c(N)n(Cc2ccccc2)c(=O)[nH]c1=O	-2	10	0	3.1	4416	-4	-21
O=C(NCCCNC(=O)c1ccco1)c1ccco1	.	7	-2	-1.6	4926	.	-4
CCOC(=O)c1c(C)nc2sc3c(=O)n(-c4ccc(OC)cc4)nnc3c2c1-c1ccc(OC)cc1	-2	-12	-7	-0.7	3242	3	-32
CCN1CCN(Cc2nc3c(c(=O)n(C)c(=O)n3C)n2CCc2ccccc2)CC1	-3	18	.	17	5284	2	-10
CCCCOc1ccc(C(=O)NCC(=O)NNC(=O)C2COc3ccccc3O2)cc1 (stereo not drawn)	4	4	.	6.0	?	4	-7
CCOP(=O)(OCC)c1nc(-c2ccc(Cl)cc2Cl)oc1N1CCOCC1	2	5	7	3.8	4008	1	-31
COc1cc(C(=O)O)cc(Br)c1OC1CCCC1	11	4	-4	10	5421	0	-17
CC(=O)Nc1ccc(OCC(O)CN2CCN(c3ccccc3Cl)CC2)cc1 (stereo not drawn)	-2	7	-2	3.1	3050	8	-17
OCCCc1cn(-c2ccccc2)c2ccccc12	2	3	-9	15	4493	5	-12
CCN1C(=O)CC(C(=O)NCCc2ccc(S(N)(=O)=O)cc2)SC1=Nc1ccc(OC)cc1 (stereo not drawn)	-23	-1	0	0.8	2731	-7	-76
CC1(C)C(=O)OC(c2c3ccccc3cc3ccccc23)C(C)(C)C1=O (stereo not drawn)	10	5	2	6.0	5657	1	-26
Cc1cccc(CN2C[C@]34C=C[C@@H](C[C@@H]3S2(=O)=O)O4)c1	.	.	-9	.	3661	.	-12
COc1ccc(/C=N/N=C2/NC(=O)CC(C(=O)O)S2)cc1 (stereo not drawn)	.	.	2	.	10525	.	-25
CCOC(=O)CCNC(=O)Nc1ccc2nc(C)n(Cc3ccc(Cl)cc3)c(=O)c2c1	15	6	-5	5.9	13618	3	-27
COc1ccccc1CN1C[C@@H]2C[C@@H](c3ccc(C)c(C)c3)N3CCC[C@@]23C1=O	10	-1	1	1.4	13854	12	-6

Next part:
Structure	Mtb hypoxia rep	ugtP null kill	BJeLR lethal	Sa RN4220 lethal	Bead autofluor	Mtb hypoxia rep growth	PrP UTR inh
COc1ccc(Cc2nc(-c3ccc(Cl)cc3)no2)cc1	9	52	-8	2.5	9633	-7	-46
CCCCn1c(N)c(N(CCOC)C(=O)c2ccc(S(=O)(=O)N(CC)c3ccccc3)cc2)c(=O)[nH]c1=O	2	-3	1	0.5	5441	6	-9
O=C(CCCN1C(=O)/C(=C/c2ccccc2)SC1=S)N1CCOCC1	8	7	5	6.6	2848	1	-1
Cn1cccc1/C=C1\SC(=S)N(Nc2ccccc2)C1=O	6	-18	-8	4.9	3986	-1	-17
COc1cc2c(c(OC)c1OC)C(=O)CO2	4	-2	.	2.3	3951	2	-16
COc1cc(C(=O)N2CCN(c3cccc(C)c3C)CC2)cc(OC)c1OC	.	8	30	4.1	6163	.	60*
Cc1ccc(CC(=O)Nc2ccc([N+](=O)[O-])cc2C)cc1	4	1	-10	-3.1	2037	11	-23
COc1cc(Cl)c(NC2=CC(=O)C(=O)c3ccccc32)c(OC)c1	14	2	.	28	3387	12	57
O=C(Nc1ccnn1C1CCN(Cc2ccccc2)CC1)C1CCCC1	-4	2	2	1.7	?	2	-13
CN(C(=O)c1ccc2c(c1)OCO2)C1(C(=O)NC2CCCCC2)CCCCC1	.	0	1	-1.9	3304	.	-14
CC(C)c1ccc(NC(=O)COC(=O)/C=C/c2cccc([N+](=O)[O-])c2)cc1	6	4	-2	7.1	2537	9	-11
Cc1ccc(N=C(NO)c2nonc2N)cc1	2	-3	3	1.7	9621	10	-25
O=C(NCCNC(=O)c1ccccn1)c1ccc(Cl)cc1	-9	8	2	-3.7	5777	8	-5
O=C(NCc1ccc2c(c1)OCO2)c1cccc(S(=O)(=O)N2CCCCC2)c1	8	9	1	0.5	17025*	15	-4
Cc1ccccc1S(=O)(=O)NCc1ccc(N2CCN(C)CC2)cc1	1	5	0	2.3	3967	-2	.
Cc1ccccc1C(=O)Nc1ccc(Br)c(C)n1	.	2	5	0.9	3675	.	-35
Cc1cc2c(N=O)c(NO)ccc2[nH]1	19	-5	17	12	11790	10	-9
CCOC(=O)/C(C#N)=C/Nc1ccccc1NS(=O)(=O)c1cccc(C(C)=O)c1	.	.	-2	.	2226	.	-27
CCCCCOC(=O)C1C(c2ccccc2)C(C(=O)O)C1c1ccccc1 (stereo not drawn)	-6	-22	-15	18	2668	-8	-17
COCC(C)NC(=O)CCS(=O)(=O)c1nc(-c2ccc(OC)cc2)cc(C(F)(F)F)n1 (stereo not drawn)	13	3	1	-6.2	2383	6	-1
CCCc1nnc(SCC(=O)N2CCCC(C)C2)n1CCOC (stereo not drawn)	15	5	-5	4.2	3377	6	-18
Cc1nc(N2CCN(Cc3ccc(Cl)cc3)CC2)c2oc3ccccc3c2n1	-1	-26	2	2.7	4301	7	0
Cc1cccc(C(=O)NC2CCN(S(=O)(=O)c3ccccc3F)CC2)c1	-1	2	2	0.5	3953	-2	-11

Source: PubChem (several laboratories)
